Source: PubChem BioAssay (several laboratories)
Efflux pump inh: blocks antifungal efflux pumps in multiplex yeast assay | S. cerevisiae Candida pump triplex, Nile Red efflux | 330,000 compounds, 0.44% hits | inhibition, % at 10 µM;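 active = plate passing quality check with inhibition over a set limit, or well fluorescence over plate mean plus 4 SD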;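 also: Nile Red retained in pooled yeast measured as flow cytometry median fluorescence; 0% = buffer negative control and 100% = Enniatin B positive control; higher means more Nile Red kept so more efflux inhibition; some compounds called inactive have numbers as strong as hits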
GASC-1 inh: inhibitors of human GASC-1 (JMJD2C) demethylase | Q9H3R0 | GST-JMJD2C(1-420) H3K9me3 demethylation, DELFIA europium | inhibition, % at 2.35 µM | 330,000 compounds, 0.069% hits | AID 2099;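 active = more than half of a compound's replicate wells show inhibition beyond 50%, single wells judged on their own value; inconclusive = some, but no more than half, of replicates pass 50% inhibition; inactive = no replicate passes 50% inhibition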;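 also: signal counts dimethyl H3K9 product captured on neutravidin plate; 0% = median of DMSO wells and 100% = 0.3 times that DMSO median; strong numbers were not always called active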
Target sequence (Q9H3R0 1-420 limits assumed): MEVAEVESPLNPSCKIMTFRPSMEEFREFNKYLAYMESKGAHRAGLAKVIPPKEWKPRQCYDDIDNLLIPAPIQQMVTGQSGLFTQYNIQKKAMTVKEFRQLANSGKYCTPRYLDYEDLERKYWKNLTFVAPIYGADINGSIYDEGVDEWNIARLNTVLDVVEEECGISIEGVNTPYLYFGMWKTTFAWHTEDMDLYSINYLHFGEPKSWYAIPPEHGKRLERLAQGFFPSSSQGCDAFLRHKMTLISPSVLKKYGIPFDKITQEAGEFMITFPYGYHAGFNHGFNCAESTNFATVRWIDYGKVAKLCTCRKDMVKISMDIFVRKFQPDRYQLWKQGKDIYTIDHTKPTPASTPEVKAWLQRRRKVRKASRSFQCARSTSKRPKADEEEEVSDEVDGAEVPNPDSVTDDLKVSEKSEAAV
PP5 primary: PP5 (human) phosphatase inhibition. P53041. purified PP5c, OMFP substrate fluorescence. inhibition, % at 6.7 µM. 320,000 compounds, 0.18% hits. AID 1987;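 active = inhibition above the campaign's mean inhibition across all tested compounds plus 3 SD, cut at about 9.5% in these data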;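 also: 0% = DMSO only and 100% = 100 µM cantharidin control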
TPT1 inhibitor: inhibitors of Candida albicans tRNA 2'-phosphotransferase TPT1; inhibition, % at 5 µM; 300,000 compounds, 0.81% hits; recombinant caTPT1, FP RNA substrate dephosphorylation;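 active = inhibition above the mean of all tested compounds plus 3 SD, set per screening campaign, cut at about 24% in these data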;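 also: plate controls were DMSO alone for no effect and ferristatin control at 100 nM for full effect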
LYPLA2 inh: counter-screen for PME1 inhibitors: inhibitors of human LYPLA2; O95372; recombinant LYPLA2, FP-Rh probe fluorescence polarization; inhibition, % at 5.9 µM; 320,000 compounds, 0.38% hits; AID 2177;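 active = inhibition above the screen-wide mean plus 3 SD, limit set per campaign, cut at about 26% in these data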;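 also: 0% = LYPLA2 with DMSO and 100% = wells lacking LYPLA2 enzyme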
Target sequence (O95372 whole entry, looked up): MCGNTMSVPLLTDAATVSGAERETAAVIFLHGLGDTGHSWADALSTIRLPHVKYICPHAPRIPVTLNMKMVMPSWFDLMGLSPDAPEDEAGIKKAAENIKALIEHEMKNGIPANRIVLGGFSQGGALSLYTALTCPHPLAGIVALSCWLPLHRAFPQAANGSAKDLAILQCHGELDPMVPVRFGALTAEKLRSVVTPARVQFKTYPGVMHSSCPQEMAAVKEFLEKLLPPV
CTSL1 counter: blocks F. hepatica cathepsin L1 in PFM18AAP counter-screen; recombinant F. hepatica cathepsin L1, Z-Leu-Arg-MCA fluorescence; inhibition, % at 5.96 µM; 300,000 compounds, 0.49% hits;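 active = inhibition above the mean of all tested compounds plus 3 SD, set per screening campaign, cut at about 17% in these data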;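 also: 0% = plate median of test compound wells and 100% = 1 µM Z-Phe-Ala-diazomethylketone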
core dimer inh: HCV core protein dimerization inhibition | inhibition, % at 5 µM | TR-FRET GST/Flag-core106 dimerization, 1536-well | 300,000 compounds, 0.33% hits;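 active = inhibition above the mean of all tested compounds plus 3 SD, set per screening campaign, cut at about 45% in these data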
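assay system = GST-tagged and Flag-tagged HCV core protein residues 1-106 | controls = unlabelled core106 and no-GST-core106 wells | incubation = compound-protein-antibody incubation 4 h at 22.5 °C | probe or stimulus = Eu donor and XL665 acceptor anti-tag antibodies | read-out = % inhibition based on acceptor/donor emission ratio | signal = TR-FRET 671 and 617 nm emission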
PP1 counter: counter-screen for PP5 inhibitors: inhibitors of human PP1-alpha; purified PP1alpha, OMFP fluorescence; inhibition, % at 6.7 µM; 320,000 compounds, 0.9% hits;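 active = inhibition above the mean inhibition of all tested compounds plus 3 SD, computed separately for each screening campaign, cut at about 15% in these data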
Target sequence (P62136 whole entry, looked up): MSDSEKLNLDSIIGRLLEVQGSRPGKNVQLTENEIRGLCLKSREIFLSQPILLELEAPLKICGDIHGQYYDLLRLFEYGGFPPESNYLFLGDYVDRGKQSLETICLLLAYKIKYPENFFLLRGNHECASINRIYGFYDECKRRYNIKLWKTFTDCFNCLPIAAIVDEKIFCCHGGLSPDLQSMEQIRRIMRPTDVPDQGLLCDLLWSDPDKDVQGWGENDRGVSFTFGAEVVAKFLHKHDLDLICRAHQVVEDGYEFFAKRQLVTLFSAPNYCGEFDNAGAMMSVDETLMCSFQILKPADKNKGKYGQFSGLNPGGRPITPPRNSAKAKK
* = called active by the depositor; ? = inconclusive; / = no result given; & = joins results of further samples. An excerpt; the hit share may differ from the screen's.

cpd	SMILES	Efflux pump inh	GASC-1 inh	PP5 primary	TPT1 inhibitor	LYPLA2 inh	CTSL1 counter	core dimer inh	PP1 counter
1	COc1ccc(OC)c(NC(=O)CSc2ccc3nnc(-c4cccnc4)n3n2)c1	0.1	-3	0.6	1	-1	2	1	-3
2	COc1ccccc1-n1c(-c2cc(-c3ccc(F)cc3)n[nH]2)n[nH]c1=S	-0.2	0	0.7	0	3	-4	3	0
3	Cc1ccn2c(=O)nc(SCC(=O)NCc3ccccc3Cl)nc2c1	-0.1	5	3.1	4	-3	2	13	-2
4	C=C(C)Cn1c(N2CCC(Cc3ccccc3)CC2)nc2c1c(=O)[nH]c(=O)n2C	0.2	7	1.4	-1	0	3	23	3
5	Cc1cccc(/C=N/n2c(-c3ccccn3)n[nH]c2=S)c1	-0.2	7	2.2	1	6	-2	2	-3
6	CSc1cccc(N2CC(C(=O)NCCN3C(=O)S/C(=C\c4cccnc4)C3=O)CC2=O)c1 (stereo unspecified)	0.1	6	0.1	4	-3	1	2	-4
7	Cc1ccc(CNc2cc(-c3nn4c(C)nnc4s3)ccc2C)s1	0.1	-10	4.4	2	5	2	6	7
8	COc1ccc(CN(CCC(c2ccco2)C(C)C)C(C)=O)cc1OC (stereo unspecified)	0.2	3	3.5	-1	-2	14	-1	-7
9	CNc1nc(-c2ccccn2)nnc1-c1ccccc1	-0.1	1	1.5	-3	7	4	-2	2
10	COC(=O)[C@@H](CC(C)C)NS(=O)(=O)N(Cc1ccccc1)[C@@H](CC(C)C)C(=O)OC	-0.2	-3	4.7	/	4	/	/	2
11	COc1ccc(Nc2nc3ccccc3nc2NS(=O)(=O)c2ccc(NC(C)=O)cc2)cc1	0.4	11	3.2	-2	-1	-2	-3	2
12	CCOC(=O)C1(C(F)(F)F)N=C(N(C)C)OC(N(C)C)=N1	-0.3	2	-0.2	-2	0	-2	-6	-1
13	COc1ccc2cc3cc(C(=O)NCCN4CCc5ccccc5C4)sc3nc2c1	0.1	-8	-0.3	-4	-13	-1	-2	-2
14	C/C(=N\OC(=O)c1ccc(C)cc1)c1sc(C)nc1C	0.0	-5	-1.3	2	4	-3	-1	-3
15	Cc1sc2ncnc(Oc3ccc(-n4ccnc4)cc3)c2c1C	0.1	5	-0.7	-3	9	0	6	2
16	CCOC(=O)Cn1cc(/C=N/NC(=O)c2cc3ccccc3o2)c2ccccc21	0.1	9	2.8	0	0	4	0	-2
17	Cc1cc(C)cc(N2CCCn3c2nc2c3c(=O)[nH]c(=O)n2C)c1	-0.1	-3	-1.3	-1	9	-12	13	2
18	COc1cccc(C2NC(=O)NC(C)=C2C(=O)Nc2cccc(C)c2C)c1 (stereo unspecified)	-0.1	-4	0.2	1	0	3	-2	1
19	COc1ccc(-c2cc(-c3n[nH]c(=S)n3-c3cc(OC)ccc3OC)[nH]n2)cc1	0.1	4	2.6	0	-2	-4	8	-6
20	C=CCNC(=O)N[C@@H](CCSC)C(=O)OC	0.0	4	1.9	-1	-1	-2	-6	-3
21	Cc1cccc(/C=C2/Sc3ccc(C(=O)N4CCOCC4)cc3NC2=O)c1	0.4	-10	-4.4	-3	13	-6	-12	-7
22	O=C(Oc1ccc2c3c(c(=O)oc2c1)CCCC3)c1cccs1	0.1	-13	2.0	-4	-2	-8	11	-1
23	COc1ccc(C[C@H]2CN3C(=NC[C@@H]3C(C)C)N2CCNC(=O)CCC2CCCCC2)cc1	0.1	-5	2.3	1	4	-3	-7	2
24	Cc1c(N=C2NC(=O)C(CC(=O)Nc3ccccc3)S2)c(=O)n(-c2ccccc2)n1C (stereo unspecified)	-0.1	4&6	0.1	-2	7	-3	4	0
25	O=C(O)C1CC(=O)N(c2ccc(OCc3ccc(Cl)cc3Cl)cc2)C1 (stereo unspecified)	0.1	5	1.5	-4	5	-1	1	0
26	O=C(NCCCN1CCN(c2ccc(F)cc2)CC1)NC12CC3CC(CC(C3)C1)C2	0.2	-2	-2.5	-1	-3	1	-8	-2
27	CN(CC(=O)O)c1ccc(S(=O)(=O)N2CCOCC2)cc1[N+](=O)[O-]	-0.1	-5	5.2	-3	3	-2	0	1
28	Cc1c(/C=N/NC(=O)c2cc(=O)[nH]c(=O)[nH]2)c2ccccn2c1C(=O)c1ccccc1	-0.1	-38	-1.8	-1	1	2	0	-4
29	O=C(N/N=C/c1ccc([N+](=O)[O-])cc1)c1ccc(NS(=O)(=O)c2cccs2)cc1	-0.1	5	1.8	/	3	/	/	1
30	CN(C)c1nc(N)nc(Cn2ccnc2)n1	-0.3	-4	2.9	-1	1	-5	-1	2
31	COc1cc(C(c2c(C)[nH][nH]c2=O)c2c(C)[nH][nH]c2=O)ccc1OC(=O)c1cccc([N+](=O)[O-])c1	0.2	-4	3.7	-5	1	2	1	-3
32	CCCS(=O)(=O)N1CCCC(C(=O)Oc2ccc(C)c(C)c2)C1 (stereo unspecified)	-0.1	-30	-1.3	-2	1	-42	4	1
33	CCOc1cccc(NC(=O)CSc2sc3c(O)cc(=O)[nH]c3c2C#N)c1	-0.2	-12	1.0	0	-11	7	-3	7
34	COCCCN1C(=O)c2[nH]nc(-c3ccccc3O)c2C1c1cccc(Cl)c1 (stereo unspecified)	-0.2	-15	2.6	-4	4	0	6	5
35	Cc1cccc(Nc2nnc(SC/C(O)=C(\C#N)c3nc4ccccc4[nH]3)s2)c1C	-0.1	-9	2.4	11	6	5	34	9
36	O=C(COC(=O)c1ccccc1C(=O)N1CCN(c2ccc(F)cc2)CC1)NCc1ccccc1	0.0	-2	2.6	-8	-2	-2	4	-3
37	COc1ccc(N2CC(C(=O)NCCN3C(=O)S/C(=C\c4cccnc4)C3=O)CC2=O)c(OC)c1 (stereo unspecified)	-0.1	8	2.1	-113	58*	2	9	-12
38	O=C(OCc1cc2ccccc2[nH]c1=O)C1CCCO1 (stereo unspecified)	0.0	15	-2.7	-4	4	-3	-2	-4
39	CCOC(=O)CNc1nnc(SCC(=O)OCC)[nH]c1=O	0.0	-5	1.4	-1	-1	0	-6	1
40	COc1ccc(NC(=O)CN2CCN(c3ccc(Cl)cc3)CC2)c(OC)c1	0.1	4	3.2	-6	0	2	11	4
41	Cc1cc(N2C(=O)C(O)=C(C(=O)c3cc4ccccc4o3)C2c2ccc([N+](=O)[O-])cc2)no1 (stereo unspecified)	0.0	-1	2.2	1	-5	-3	16	30*
42	COc1ccccc1NC(=O)C1=C(C)Nc2nc3ccccc3n2C1c1cccs1 (stereo unspecified)	0.1	-17	3.8	2	0	-1	-2	-2
43	CNC[C@H]1Oc2ccc(NC(=O)Nc3ccc(OC)cc3)cc2C(=O)N([C@@H](C)CO)C[C@H]1C	0.0	10	/	/	/	/	/	/
44	COc1cccc(OCCNC(=O)CSc2ccc(C(F)(F)F)cc2[N+](=O)[O-])c1	0.2	3	3.9	4	4	1	8	4
45	CCN(CCNc1ccc(Cl)cc1[N+](=O)[O-])C(=O)c1cc([N+](=O)[O-])c(N(C)C)cc1OC	0.1	-3	1.8	0	6	4	2	4
46	CCOc1cc(/C=N/NC(=O)CN2CCCCC2)ccc1OCc1ccc(Cl)cc1	-0.1	7	0.5	-7	1	6	-8	3
47	O=S(=O)(c1ccc(F)cc1)N1CCCC(CO)C1 (stereo unspecified)	-0.2	-14	0.5	-1	-2	8	-7	-3
48	C=CCNc1cnn(-c2ccccc2)c(=O)c1Cl	0.3	0	1.5	3	0	3	-5	-3
49	O=C(Oc1coc(CSc2ncccn2)cc1=O)c1ccco1	-0.2	10	1.0	1	7	-19	2	-4
50	COc1cccc(Nc2nc3ccccc3nc2NS(=O)(=O)c2ccc(NC(C)=O)cc2)c1	-0.5	3	6.3	-5	0	3	-18	7
51	CCN1CCN(c2oc(/C=C/c3ccccc3)nc2C#N)CC1	0.1	0	-0.4	-2	13	2	-2	-2
52	COC(=O)C1=C(C)NC(C)=C(C(=O)OC)C1c1ccc(OC(=O)c2ccco2)cc1	-0.1	13	2.6	-5	7	8	1	-2
53	Cc1cc2c(cc1S(=O)(=O)N(C)c1ccccc1)NC(=O)CO2	-0.3	0	2.3	-1	-6	7	-8	-15
54	O=S(=O)(NC1CCCCCC1)c1cccc2cccnc12	-0.3	-2	1.9	-1	0	-2	2	0
55	CCOC(=O)c1cnc(-n2nc(C)cc2C)nc1NCc1ccccc1	0.2	?	7.0	4	-1	1	2	54*
56	Cn1c(N)c(C(=O)COC(=O)COc2ccc3ccccc3c2)c(=O)n(C)c1=O	-0.5	15	2.6	3	-5	-12	14	5
57	COc1ccc(C(=O)/C=C/c2cn(CC(O)CN3CCOCC3)c3ccccc23)cc1 (stereo unspecified)	0.0	-1	3.3	51*	-3	2	5	11
58	CCOC(=O)N1CCN(CC(=O)Nc2sc(CC)cc2C(=O)c2ccc(OC)cc2)CC1	0.0	-2	0.1	-3	-4	-1	7	-1
59	CCn1c(C)c2c(C)nnc(C)c2c1C	0.1	-8	1.0	4	-5	-4	-1	-2
60	c1ccc(CSc2ccc(-c3ccccn3)nn2)cc1	-0.2	17	0.2	6	-1	-5	5	0

Molecules from the list above that have a Cl atom:
cpd	SMILES	Efflux pump inh	GASC-1 inh	PP5 primary	TPT1 inhibitor	LYPLA2 inh	CTSL1 counter	core dimer inh	PP1 counter
3	Cc1ccn2c(=O)nc(SCC(=O)NCc3ccccc3Cl)nc2c1	-0.1	5	3.1	4	-3	2	13	-2
25	O=C(O)C1CC(=O)N(c2ccc(OCc3ccc(Cl)cc3Cl)cc2)C1 (stereo unspecified)	0.1	5	1.5	-4	5	-1	1	0
34	COCCCN1C(=O)c2[nH]nc(-c3ccccc3O)c2C1c1cccc(Cl)c1 (stereo unspecified)	-0.2	-15	2.6	-4	4	0	6	5
40	COc1ccc(NC(=O)CN2CCN(c3ccc(Cl)cc3)CC2)c(OC)c1	0.1	4	3.2	-6	0	2	11	4
45	CCN(CCNc1ccc(Cl)cc1[N+](=O)[O-])C(=O)c1cc([N+](=O)[O-])c(N(C)C)cc1OC	0.1	-3	1.8	0	6	4	2	4
46	CCOc1cc(/C=N/NC(=O)CN2CCCCC2)ccc1OCc1ccc(Cl)cc1	-0.1	7	0.5	-7	1	6	-8	3
48	C=CCNc1cnn(-c2ccccc2)c(=O)c1Cl	0.3	0	1.5	3	0	3	-5	-3
